miR-21 FLuc: miR-21 reporter, rising signal. HeLa miR-21 FLuc reporter, luciferase, 48 h. Potency, µM (titrated, usually from 38.3 µM), for the others: top-dose reporter change, positive = more light. 340,000 tested, under 10 active. AID 2288; active = well fitted rising curve with a large enough effect; inconclusive = small, poorly fitted or top-dose-only effect; inactive = no such curve, though single readings can be large or run the other way;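 note: % of control where 0% means no effect; miR-21 action dims this reporter so a rising signal means less miR-21 action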
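Using DMEM plus 10% FBS, HeLa miR-21-FLuc cells are incubated with test compounds (final up to about 40uM) for 48 hours; firefly luciferase signal is then imaged following reagent-mediated lysis.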
Rango dissoc inh: inhibitors of RanGTP-induced Rango-importin beta complex dissociation; O95149+P62826; Biochemical FRET Rango-importin beta, RanGTP-induced dissociation; Potency, µM (highest dose often 46.1 µM), for the others: top-dose activity change, negative = inhibition; 340,000 tested, 0.071% active; AID 540253; active means falling FRET ratio curve, often poorly fitted, with flat reads before Ran was added; inconclusive means other falling curves, or compound fluorescence or quenching; inactive means flat or rising ratio curve;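 note: potency is the fitted concentration of half-maximal effect; % of control where 0% means no effect; nearly all actives have a fitted effect of over 45% in size; -100% = wells without RanGTP and RCC1; the record marks most hits as doubtful in a second field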
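Rango FRET biosensor (snurportin-1 IBB flanked by N-terminal EYFP and C-terminal CFP10) at 0.1 uM, with 0.25 uM importin beta in PBS, 1mM DTT, 0.02% Tween-20, 0.1% BSA. 0.6 uM Ran, 2mM GTP and 0.2 uM RCC1 were then added for 45 min at room temperature. Inhibition read as loss of FRET rise.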
Rango-impB inh: prevents formation of the Rango-importin beta complex; Q14974; Rango CFP/YFP FRET sensor + importin beta, 45 min; Potency, µM (highest dose often 92.2 µM), for the others: at the top dose inhibition of complex formation; 340,000 tested, 0.031% active; AID 540263; active = rising FRET ratio curve, often small or poorly fitted; inconclusive = mostly compound fluorescence or quenching in the first reads; inactive = flat curves in all reads;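 note: potency is the fitted concentration of half-maximal effect; 0% = DMSO wells and 100% = buffer wells lacking importin beta; nearly all actives have a fitted effect of over 15% in size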
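FRET biosensor (snurportin 1 IBB flanked by EYFP and cerulean), 50 nM, with compound 5 min, then 0.125 microM importin beta in PBS, 1 mM DTT, 0.02% Tween-20, 0.1% BSA. CFP/YFP ratio read after 45 min at room temperature; pre-read flags interference.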
GLA inh pH 4.5: blocks human alpha-galactosidase A at pH 4.5; 230,000 tested, under 10 active; activity change, negative = inhibition, % at 105 µM; purified enzyme, 4-MU-alpha-Gal fluorescence, pH 4.5; inconclusive = small, poorly fitted or top-dose-only inhibition, or a rising curve; inactive = flat fitted curve, though single readings scatter; no compound was filed as active;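 note: 0% = full activity with enzyme and -100% = basal without enzyme; dose as in the result columns while the protocol names 77 µM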
Target sequence (P06280 whole entry, looked up): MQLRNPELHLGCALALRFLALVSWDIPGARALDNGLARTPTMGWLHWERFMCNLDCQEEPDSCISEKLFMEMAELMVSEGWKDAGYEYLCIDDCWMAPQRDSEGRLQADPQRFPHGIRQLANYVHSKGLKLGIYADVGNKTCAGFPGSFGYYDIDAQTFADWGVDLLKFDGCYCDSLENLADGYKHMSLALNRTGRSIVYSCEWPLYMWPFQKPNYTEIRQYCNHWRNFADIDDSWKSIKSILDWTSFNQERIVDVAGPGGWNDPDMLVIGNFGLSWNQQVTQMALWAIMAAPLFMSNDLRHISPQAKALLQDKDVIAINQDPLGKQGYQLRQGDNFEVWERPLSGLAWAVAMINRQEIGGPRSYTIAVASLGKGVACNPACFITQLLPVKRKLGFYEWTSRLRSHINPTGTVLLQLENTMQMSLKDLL
The depositor's hits bear a star; ? = inconclusive; / = no result given; & = joins results of further samples.

Under each structure: miR-21 FLuc, Rango dissoc inh, Rango-impB inh, GLA inh pH 4.5
1: CC(=O)c1cccc(NC(=O)N2CCCC2C(=O)NCCC(C)C)c1 (stereo unspecified)
  -8.4%, -1.5%, 4.3%, 0.0
2: Cc1cccnc1NC(=O)CN1C(=O)c2ccccc2S1(=O)=O
  /, ?, 4.0%, /
3: COC(=O)C1=C(C)NC(=O)/C1=C\c1cc(C)n(-c2cc(C)cc(C)c2)c1C
  -1.3%, -3.1%, 2.7%, 4.1
4: CCN(CC)C(=O)c1ccccc1NC(=O)c1cccc(S(=O)(=O)N(CC)CC)c1
  -18.0%, 0.3%, 0.8%, 5.0
5: C=CCNC(=O)C12CCC(C)(C(=O)[C@H]1Br)C2(C)C (stereo partly specified)
  5.3%, 4.0%, 0.1%, -4.8
6: COc1ccc(/C=C/C(=O)N(C)C2CCCCC2)cc1Br
  -62.6%, 0.5%, -1.3%, 5.7
7: Cc1c(O)ccc2c(CN(C)Cc3ccccc3)cc(=O)oc12
  -13.1%, ?, ?, -10.7
8: CCOC(=O)c1cnn(-c2ccccc2)c1NC(=O)CN1CCOCC1
  0.4%, -16.8%, 4.1%, 3.0
9: Cc1nn(-c2ccc(F)cc2F)c(=O)c2noc(C)c12
  -1.1%, 5.1%, -2.8%, 4.0
10: CC(=O)Nc1ccc(NC(=O)CSc2nc3nc(-c4cccs4)cc(C(F)(F)F)c3c(=O)[nH]2)cc1
  2.3%, -2.0%, 2.1%, -6.5
11: Cn1c(C(O)c2ccccc2F)nc(Cl)c1Cl (stereo unspecified)
  -4.8%, 0.8%, 0.3%, 1.6
12: N#C/C(=C\c1ccc([N+](=O)[O-])cc1)c1ccccn1
  -36.3%, 4.1%, -3.5%, 0.4
13: COc1ccc(/C=C/C(=O)Nc2cc(S(=O)(=O)N3CCOCC3)ccc2OC)cc1
  /, -6.6%, -0.1%, /
14: COc1cc2cc(C(c3nnnn3C3CCCC3)N3CCCCC3)c(=O)[nH]c2cc1OC (stereo unspecified)
  -3.2%, 7.1%, 5.4%, -2.8
15: Fc1ccc(-n2c(=S)[nH]c3cccnc32)cc1
  -11.0%, 1.6%, 3.5%, /
16: O=C1CCCN1CCCNC(=S)Nc1ccc(F)c(Cl)c1
  -9.9%, -11.2%, 4.6%, 5.5
17: Cc1cc(=O)[nH]c(SCCc2ccccc2)n1
  -17.1%, 0.0%, 3.3%, /
18: CCCOc1ccc(CCc2n[nH]c(=S)n2Cc2ccccc2)cc1
  6.8%, 1.2%, -0.7%, 0.8
19: CNc1ncnc2c1ncn2[C@@H]1O[C@H](CO)[C@@H](O)[C@H]1O
  /, -7.4%, -3.5%, /
20: COc1cccc(C(=O)OCC(=O)NCCCc2ccccc2)c1
  -0.4%, 1.6%, -0.1%, /
21: C=C(C)Cn1c(SCC(=O)O)nnc1-c1ccc(C(C)(C)C)cc1
  -9.0%, 15.7%, 0.3%, 7.8
22: CC(CN1CCOCC1)OC(=O)c1ccccc1Br (stereo unspecified)
  -4.3%, 0.3%, -2.6%, 1.7
23: Nc1nc(SCC(=O)N2CCCCCC2)[nH]c(=O)c1NC(=O)c1ccco1
  -3.7%, -18.9%, -0.9%, -6.8
24: CN(C)S(=O)(=O)c1cc(NC(=O)COC(=O)Cc2ccc(Cl)cc2Cl)ccc1Cl
  7.8%, 24.4%, 0.8%, -6.0
25: COC(=O)c1cccc(NC(=S)Nc2cccc(Cl)c2C)c1
  -8.8%, 31.3%, 5.2%, 5.5
26: CCOC(=O)c1sc(NC(=O)C(C)Sc2nc(N)cc(=O)[nH]2)nc1C (stereo unspecified)
  1.0%, 4.7%, 0.9%, -3.9
27: NC(=O)c1c(NC(=O)CSc2nnc(-c3ccccc3)n2CC2CCCO2)sc2c1CCC2 (stereo unspecified)
  0.2%, -7.1%, -0.1%, 3.4
28: Nc1nc2c(s1)C(=O)CCC2
  -3.2%, 16.7%, -0.7%, -2.7
29: COc1ccc(CC(=O)NCC(=O)N/N=C/c2ccc(C)o2)cc1
  -8.8%, -18.6%, -0.7%, -2.9
30: Cc1ccccc1Nc1nc(-c2sc(NC(=O)c3ccc([N+](=O)[O-])cc3)nc2C)cs1
  -8.7%, /, /, -6.0
31: CC1CCN(c2c(NCc3ccc(C(=O)N(C)C4CCCCC4)cc3)c(=O)c2=O)CC1
  0.1%, -27.1%, -1.6%, -6.7
32: Cc1ccc(OCC(=O)Nc2cccc(-c3nnc(-c4ccccc4)o3)c2)c(C)c1
  -21.3%, ?, ?, -0.7
33: O=C(/C=C/c1ccc2ccccc2n1)N1CCN(S(=O)(=O)c2ccccc2F)CC1
  ?, -8.1%, 0.8%, -29.2
34: C[C@]12c3[nH]c4ccc(Cl)cc4c3CCN1C(=O)[C@@H](CC(=O)NCCc1ccccn1)C[C@@H]2C(=O)N1CCCCC1
  /, 5.4%, -3.8%, /
35: CCOC(=O)c1c(NC(=O)CSc2nnc3c(n2)[nH]c2ccccc23)sc2c1CCN(C)C2
  /, -25.3%, -3.6%, /
36: CC(=O)C(Sc1ccc2nnc(-c3ccc(C)cc3)n2n1)C(C)=O
  2.3%, 8.6%, 4.0%, 7.2
37: CN(C)N1C(N)=C(C#N)C(c2ccc(Br)cc2)C2=C1CC(C)(C)CC2=O (stereo unspecified)
  1.4%, -2.2%, ?, /
38: CCn1c(COc2cccc(OC)c2)nnc1SCC(=O)Nc1cccc(OC)c1
  3.0%, 1.6%, 2.7%, -4.6
39: COCCCNC(=O)CCC(=O)NNc1nc2ccccc2c2nc(-c3ccccc3)nn12
  -17.8%&-12.3%, 12.6%, -0.1%, -0.7
40: CCCN(CC(=O)Nc1ccccc1OC)C(=O)CSC(=S)N1CCCC1
  /, -0.4%, -3.0%, /
41: COc1ccc(-c2nc(C(F)(F)F)c(OC)o2)cc1OC
  -3.1%, 12.3%, ?, 1.2
42: O=C(NCCN1C(=O)C2C3C=CC(C3)C2C1=O)N1CCOCC1 (stereo unspecified)
  -12.1%, -22.6%, -2.7%, 9.0
43: Cc1cc(-c2nn(-c3ccccc3F)cc2CN2CCCC(C(N)=O)C2)c(C)s1 (stereo unspecified)
  1.0%, -17.1%, 1.7%, 1.0
44: O=C(O)c1nc(-c2ccccc2)n(-c2ccccc2)n1
  0.1%, 6.9%, -0.5%, -2.3
45: O=C(Nc1cccc(S(=O)(=O)NC2=NCCCCC2)c1)c1cc(-c2ccco2)nc2ccccc12
  11.7%, -11.1%, -1.8%, -8.5
46: CCCc1c(C)nn(-c2ncccc2[N+](=O)[O-])c1C
  -5.7%, -1.3%, -0.2%, 0.9
47: O=C(COc1ccc(-c2ccccc2)cc1)N1CCCC1
  0.8%, -10.2%, 3.2%, -20.3
48: C=CCC[C@@H](Cc1ccc(F)cc1)C(=O)OCCNC(=O)[C@@H](CC=C)CC(=O)N(CCO)Cc1ccccc1
  /, 30.1%, 3.2%, /
49: COc1ccc(/C=N/N2CCN(c3ccccc3)CC2)cc1Br
  0.6%, -0.3%, 0.9%, /
50: COC(=O)Nc1nnc(SCc2ccc(C)cc2)s1
  -27.4%, 21.7%, 1.0%, 1.9
51: COc1ccccc1CNC(=O)C1CCCN(S(=O)(=O)c2ccc3c(c2)C(C)(C)C(=O)N3C)C1 (stereo unspecified)
  11.3%, 2.2%, 3.2%, /
52: COc1ccc(C(=O)N2CCCC(C(=O)c3ccccc3OC)C2)cc1OC (stereo unspecified)
  -12.6%, -2.2%, 3.3%, /
53: COc1ccc(CC(=O)Nc2cc(Cl)ccc2N2CCCC2)cc1
  3.1%, -7.7%, 3.2%, /
54: Cc1cc(C(=O)COC(=O)c2cc(Cl)ccc2N)c(C)n1Cc1ccco1
  -70.1%, 12.4%, 0.6%, 5.4
55: COc1ccc(-c2nnn3c2nc(NCc2ccccc2)c2ccccc23)cc1
  -8.9%&-8.5%, -9.9%, ?, -4.3
56: O=C(CN1C(=O)c2cccnc2Oc2ccc(Cl)cc21)NCCc1ccccc1
  -1.6%&-2.0%, 1.5%, 3.9%, /
57: Cc1cc(Nc2ccc(F)cc2F)n2nc(C)nc2n1
  -3.4%, 14.1%, 0.4%, -2.2
58: Cc1ccc(-c2cc(C(=O)N3CCN(c4ccc(F)cc4)CC3)c3ccccc3n2)o1
  -8.8%, 6.3%, 0.1%, 1.6
59: CC(=O)Nc1ccc(NC(=O)C(C)OC(=O)c2cc(S(=O)(=O)N3CCOCC3)ccc2Cl)cc1 (stereo unspecified)
  /, -15.9%, -0.1%, /
60: COC(=O)c1ccc(C2Nc3ccccc3NC3=C2C(=O)CC(C)(C)C3)cc1 (stereo unspecified)
  -10.7%, -6.1%, -0.5%, /

Compounds above that contain a thiophene ring, fused or not, in the order listed:
Under each structure: miR-21 FLuc, Rango dissoc inh, Rango-impB inh, GLA inh pH 4.5
10: CC(=O)Nc1ccc(NC(=O)CSc2nc3nc(-c4cccs4)cc(C(F)(F)F)c3c(=O)[nH]2)cc1
  2.3%, -2.0%, 2.1%, -6.5
27: NC(=O)c1c(NC(=O)CSc2nnc(-c3ccccc3)n2CC2CCCO2)sc2c1CCC2 (stereo unspecified)
  0.2%, -7.1%, -0.1%, 3.4
35: CCOC(=O)c1c(NC(=O)CSc2nnc3c(n2)[nH]c2ccccc23)sc2c1CCN(C)C2
  /, -25.3%, -3.6%, /
43: Cc1cc(-c2nn(-c3ccccc3F)cc2CN2CCCC(C(N)=O)C2)c(C)s1 (stereo unspecified)
  1.0%, -17.1%, 1.7%, 1.0

Remaining list, next part
Under each structure: miR-21 FLuc, Rango dissoc inh, Rango-impB inh, GLA inh pH 4.5
61: Cc1ccc(NC(=S)N(CCCN(C)C)Cc2cc3cc4c(cc3[nH]c2=O)OCO4)c(C)c1
  -6.1%, 7.8%, 2.7%, 2.4
62: O=C(NCCc1ccc(Cl)cc1)c1ccc2c(c1)OCCO2
  -9.6%, 7.8%, 0.6%, /
63: COc1ccc(OC)c(S(=O)(=O)NCCC2=CCCCC2)c1
  -2.7%, 14.8%, -1.3%, -6.5
64: Cc1ccc(N=Cc2ccccc2O)cc1Cl
  /, -3.0%, 4.0%, /
65: Cc1cccc(/C(N)=N/OC(=O)c2ccccc2Cl)c1
  -53.3%, 4.2%, -0.5%, -0.7
66: O=C1C2CCCCC2C(=O)N1c1ccc(NC2CCN(Cc3ccccc3)CC2)c([N+](=O)[O-])c1 (stereo unspecified)
  1.4%, -4.7%, -1.5%, -7.3
67: O=C(Nc1ccccc1Sc1ccccc1)C1CCCO1 (stereo unspecified)
  -9.2%, 3.2%, 6.5%, -8.1
68: O=C(N/N=C/c1coc2ccccc2c1=O)c1ccc(Cl)cc1
  2.2%, -18.7%, 1.9%, /
69: O=C(Nc1cc2c3c(c1)CC(=O)N3CCC2)c1ccccc1C(F)(F)F
  /, 16.4%, 3.5%, /
70: C[C@@]12C(=O)N(c3cccc(Cl)c3)C(=O)N1[C@@H]1c3ccccc3OC[C@@H]1[C@H]2c1ccccc1
  /, 9.7%, 0.2%, /
71: O=C(Nc1ncc(C(F)(F)F)cc1Cl)c1ccc(S(=O)(=O)N2CCOCC2)cc1
  0.2%, -1.7%, 1.9%, -0.1
72: Cc1ccc(NC(=O)c2ncn(CC(=O)NCc3nc4ccccc4[nH]3)n2)cc1C
  /, 7.2%, -1.0%, /
73: Cc1c(C=O)c2ccccn2c1C(=O)c1ccccc1
  -13.5%, 9.4%, 3.4%, 4.1
74: O=c1cc2c(nn1Cc1cccc([N+](=O)[O-])c1)-c1ccccc1CC2
  -11.1%, 1.1%, -1.5%, ?
75: Cc1ccc(-n2c(Cc3ccccc3)n[nH]c2=S)c(C)c1
  -3.1%, -3.2%, 0.2%, 1.9
76: Cc1nc(-c2ccccc2)sc1C(=O)CSc1ccc(Cl)cc1
  -12.7%, 18.4%, 0.2%, -6.3
77: CC(=O)Nc1ccccc1OC(C)C(=O)N1CCC(C)CC1 (stereo unspecified)
  -0.3%, -11.3%, -5.1%, 1.3
78: CC(C)C(NC(=O)c1ccccc1)C(=O)NC1CCCc2ccccc21 (stereo unspecified)
  /, -10.6%, -0.1%, /
79: COc1ccc(C(=O)N2CCOC2CNC(=O)C(=O)NCc2ccccc2Cl)cc1 (stereo unspecified)
  -1.7%, -4.9%, -1.0%, /

High-throughput results from PubChem BioAssay.

This is a subset; the hit share may differ from the screen's.
